TRPML1 agonist: qHTS for Agonists of the Human Mucolipin Transient Receptor Potential 1 (TRPML1) | activation, % (concentration not given with the values) | hit rate 0.12% among 410,000 | Mucolipin-1 (Homo sapiens), Q9GZU1 | TRPML1-expressing cells, Ca2+ dye fluorescence, FDSS; host cell line not named in the record; reference of the full effect not given here; in the data active = activation above about 50%; inconclusive = about 30% to 50%; inactive = below about 30%; further: 0% is about no effect; the text of the record puts the active cut at 80%
Target sequence (Q9GZU1 whole entry, looked up): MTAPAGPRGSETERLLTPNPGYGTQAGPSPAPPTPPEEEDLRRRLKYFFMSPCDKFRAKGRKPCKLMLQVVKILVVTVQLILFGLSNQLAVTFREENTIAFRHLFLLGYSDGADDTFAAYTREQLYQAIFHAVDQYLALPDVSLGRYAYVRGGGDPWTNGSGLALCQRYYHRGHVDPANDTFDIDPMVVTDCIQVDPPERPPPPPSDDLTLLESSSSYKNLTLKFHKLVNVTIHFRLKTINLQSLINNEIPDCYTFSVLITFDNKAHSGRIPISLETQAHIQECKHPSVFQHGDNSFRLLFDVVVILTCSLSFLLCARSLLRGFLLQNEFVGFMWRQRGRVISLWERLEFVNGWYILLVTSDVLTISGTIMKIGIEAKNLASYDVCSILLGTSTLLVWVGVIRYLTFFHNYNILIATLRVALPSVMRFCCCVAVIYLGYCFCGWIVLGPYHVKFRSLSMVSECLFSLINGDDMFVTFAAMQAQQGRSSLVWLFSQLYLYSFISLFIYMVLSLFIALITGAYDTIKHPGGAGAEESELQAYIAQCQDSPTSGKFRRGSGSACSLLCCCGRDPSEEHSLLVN
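TRPML1-DL cells, Tet-induced overnight (~16 h, 37 degrees C), loaded 45-90 min at room temperature with Ca8 no-wash calcium dye plus quencher. FDSS fluorescence: 10 s baseline, compound pin-transfer, 110 s agonist read, then EC80 54-4 (4uM final) and 110 s antagonist read.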
TRPML1 inh: qHTS for Inhibitors of the Human Mucolipin Transient Receptor Potential 1 (TRPML1); Mucolipin-1 (Homo sapiens), Q9GZU1; TRPML1-inducible cells, Ca2+ dye fluorescence, FDSS; stronger effect = lower value; inhibition of EC80 agonist-evoked calcium signal; activity change, negative = inhibition, % (no concentration beside the values); hit rate 0.02% among 390,000; in the data active means activity change below about -50%; inconclusive means about -30% to -50%; inactive means above about -30%;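 further: stimulus is agonist 54-4 at its EC80 concentration; on the % scale 0 is the no-effect control and ±100 the full control effect; compound concentration not given in the record; the text of the record puts the active cut at -80%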
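Calcium fluorescence in TRPML1-DL cells induced overnight with Tet: a 110 s read after compound pin addition, then a 110 s antagonist read after challenge with 54-4 at 4 uM final (EC80).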
An asterisk follows results filed as active; ? = inconclusive. Not all compounds are listed, so the mix of outcomes need not match the whole.

SMILES	TRPML1 agonist	TRPML1 inh
CCCCN(C)CCCNC(=O)Cn1ncc2c3ccccc3n(Cc3cccc(Cl)c3)c2c1=O	-0.7	7
CCOC(=O)c1c(C)oc2nc(C)nc(NCC3CCN(Cc4ccccc4C)CC3)c12	-0.2	2
COc1ccc(-n2c(=O)c3c4c(sc3n(Cc3ccc(F)cc3)c2=O)CN(C(C)=O)CC4)c(OC)c1	-0.8	22
COc1ccc(C2c3c(n(C)c4ccccc34)C(=O)N2CC(=O)Nc2c(C)cc(C)cc2C)cc1 (stereo not given)	2.1	31
Cc1c(NC(=O)c2cccc3c(Cl)cccc23)cccc1-c1nc2ccccc2o1	0.5	15
CC(C)Sc1ncc(Cl)c(C(=O)Nc2ccc(S(=O)(=O)Nc3ncccn3)cc2)n1	1.7	5
CCOC(=O)N1CCc2c(sc3c2c(=O)n(CCc2ccccc2)c(=O)n3Cc2ccc(C)cc2C)C1	0.9	6
Cc1cccc(S(=O)(=O)c2cn(C)c3cc(N4CCN(c5ccccc5)CC4)c(F)cc3c2=O)c1	2.1	1
Cc1c(CNC(C)CCc2ccccc2)c(C(=O)O)c(C)n1Cc1ccc(F)cc1 (stereo not given)	0.4	-3
CCN(CC)S(=O)(=O)c1ccc2c(c1)N(CC(=O)N1CCN(c3cccc(Cl)c3)CC1)C(=O)CO2	-0.2	-5
CSc1ccc(CCNC(=O)CCCn2c(=O)c3cccn3c3ccccc32)cc1	2.7	-17
CCc1nc2ccccc2n1CCCCOc1cccc(C)c1	4.0	4
CCOC(=O)c1ccccc1NC(=O)Cn1c(=O)n(Cc2ccc(C(=O)NCc3ccc4c(c3)OCO4)cc2)c(=O)c2ccccc21	0.0	3
CC(C)Oc1ccc(CNC(=O)c2ccc3nc(SCc4ccc(F)cc4)n(C)c3c2)cc1	-0.1	-10
COc1ccc(-c2nc(CCNC(=O)c3cc(OC)c(OC)c(OC)c3)cs2)cc1	1.4	-1
Cc1ccccc1C(=O)Nc1ccc2nc(Nc3cccc(C(F)(F)F)c3)cc(C)c2c1	0.7	21
CCOc1ccccc1N(C)C(=O)C1CCCN(c2ncnc3onc(-c4ccc(F)cc4)c23)C1 (stereo not given)	0.8	15
CCOC(=O)c1c(C)oc2ncnc(N3CCN(c4ccccc4)CC3)c12	1.7	6
Cc1ccc(NC(=O)NC(C)c2c(-n3cccc3)sc(C)c2C)c(C)c1 (stereo not given)	1.8	43
COc1ccccc1OC(C)C(=O)N1CCN(CCc2ccccn2)CC1 (stereo not given)	0.0	7
O=C(NCc1ccc2c(c1)OCO2)c1ccc2c(c1)N(Cc1cccc(Cl)c1)C(=O)c1ccccc1S2=O (stereo not given)	0.0	22
O=C(NCc1ccccc1)[C@]1(C(F)(F)F)C[C@H](CCC2CCCCC2)CCCO1	0.5	12
Cc1cccc(Nc2c(-c3cccs3)nc3nc(C)cc(C)n23)c1	-0.3	6
CCCn1cc(S(=O)(=O)c2ccc(OC)cc2)c(=O)c2cc(F)c(N3CCCCCC3)cc21	0.7	-5
CCOC(=O)c1c(C)[nH]c(C)c1S(=O)(=O)N1CCC(C(=O)NCc2ccc(OC)cc2)CC1	-1.1	-10
Cc1ccc(S(=O)(=O)NCC2CCC(C(=O)NCc3ccc(F)cc3)CC2)cc1 (stereo not given)	0.7	-17
COc1ccc(CCNC(=O)Cn2c(-c3ccc(F)cc3)cc(C(C)=O)c2C)cc1OC	2.6	18
CCOc1ccc(NC(=O)c2cnn(-c3ccccc3)c2-n2cccc2)cc1	-0.4	7
CC(C)(C)c1ccc(OCCSc2nc(-c3cccs3)nc3cc(=O)[nH]n23)cc1	-0.8	-1
Cc1ccc2c(CC(=O)Nc3c(C(=O)Nc4cccc(Cl)c4)oc4ccccc34)coc2c1C	-0.5	-9
COC(=O)c1ccccc1NC(=O)CCCn1c(=O)c2cccn2c2cccnc21	0.9	-11
Cc1ccccc1CN1c2ccccc2-c2nc(SCC(=O)NCc3ccccc3)ncc2S1(=O)=O	2.5	-5
Cc1nc2c(-c3ccccc3)c(C)nn2c(C)c1CCC(=O)NCCc1ccccc1	-0.2	54
Cn1c(SCc2ccc(Br)cc2)nc2c([nH]c3ccccc32)c1=O	0.6	-17
Cc1ccc(C)c(Nc2nc3c(S(=O)(=O)c4ccc(C(C)C)cc4)nnn3c3ccsc23)c1	2.2	8
CCOc1ccc(C(=O)Nc2c(C(=O)N3CCN(c4ccccc4F)CC3)oc3ccccc23)cc1	-0.8	8
CCCc1cc(=O)n2[nH]c(NCc3ccccc3OC)nc2n1	-0.4	-10
Cc1ccc(NC(=O)Cn2c(=O)n(Cc3nc(C)no3)c(=O)c3ccccc32)c(Cl)c1	-0.4	-4
O=S(=O)(Nc1cccc(-c2ccc(N3CCCC3)nn2)c1)c1ccc(F)cc1F	-0.7	34
CCOc1ccc(-c2nc(CSCC(=O)NCCc3ccc(OCC)c(OCC)c3)c(C)o2)cc1	1.8	18
CCOc1ccc(NC(=O)Cn2c(=O)n(Cc3ccc4c(c3)OCO4)c(=O)c3ccc(C(=O)NC4CCCCC4)cc32)cc1	1.5	14
O=C(NCCc1csc(-c2ccc(Cl)cc2)n1)c1cccs1	3.1	31
CCOc1ccc(NC(=O)C2CCN(c3nnc(C)c4c(C)n(-c5ccccc5)nc34)CC2)cc1	-0.4	-6
CCN(C(=O)Cn1cnc2sc(C)c(S(=O)(=O)N3CCN(c4ncccn4)CC3)c2c1=O)c1ccccc1F	0.3	-2
O=C(O)c1cccc(NC(=O)c2cc3cc(Br)cc(Br)c3oc2=O)c1	3.0	-4
Cc1ccc(OCC(=O)OCc2cc(=O)n3nc(C4CC4)sc3n2)cc1C	0.6	17
Cc1nc2c(C(=O)NCCc3ccccc3)c[nH]n2c(=O)c1Cc1ccccc1F	-0.8	13
COc1ccc(NC(=O)Nc2nnc(N3CCCCCC3)s2)c(OC)c1	-0.2	12

3 entries picked at random from those above, as already listed:
SMILES	TRPML1 agonist	TRPML1 inh
CCN(C(=O)Cn1cnc2sc(C)c(S(=O)(=O)N3CCN(c4ncccn4)CC3)c2c1=O)c1ccccc1F	0.3	-2
CCCc1cc(=O)n2[nH]c(NCc3ccccc3OC)nc2n1	-0.4	-10
CCOc1ccc(NC(=O)C2CCN(c3nnc(C)c4c(C)n(-c5ccccc5)nc34)CC2)cc1	-0.4	-6

The list continues.
SMILES	TRPML1 agonist	TRPML1 inh
COc1ccc(OCC(O)Cn2c(NCCO)nc3c2c(=O)n(C)c(=O)n3C)cc1 (stereo not given)	-0.8	-16
CCn1cc2nc(SCc3cc(C)ccc3C)n(Cc3ccc(C)cc3)c(=O)c2n1	0.1	9
Cc1nc2c(-c3ccccc3)c(C)nn2c(C)c1CCC(=O)NCc1ccccc1	-1.8	-15
Cc1nn(C(=O)c2ccc(Cl)cc2)c(C)c1Sc1ccc(Cl)cc1	-0.4	-3
COc1ccc(NCc2cccn2-c2nnc(N3CCOCC3)s2)c(OC)c1	0.8	3
O=C(Nc1ccccc1)N(Cc1ccc(F)cc1)c1ccccn1	2.9	8
Cc1c(F)cccc1Cn1cnc2c(cnn2C(C)(C)C)c1=O	1.9	-1
O=S(=O)(c1ccc(Cl)cc1)c1nc(-c2ccco2)oc1SCc1ccc(F)cc1	1.1	43
Oc1c(C(c2ccccc2Cl)N2CCCC2)sc2nc(-c3ccco3)nn12 (stereo not given)	0.7	11
COc1ccc(CNC(=O)Cn2ccc3cc(S(=O)(=O)N4CCCC4)ccc32)c(OC)c1	4.5	-4
CCCN1CCN(CC2=C(C(=O)OCC)C(c3ccc(Cl)cc3)NC(=O)N2)CC1 (stereo not given)	-0.1	4
Cc1ccc(-c2nc3c(C)cccn3c2Nc2ccccc2C)s1	3.1	-23

Sorted by length of the SMILES (lowest first): some entries from above.
SMILES	TRPML1 agonist	TRPML1 inh
Cc1c(F)cccc1Cn1cnc2c(cnn2C(C)(C)C)c1=O	1.9	-1
O=S(=O)(c1ccc(Cl)cc1)c1nc(-c2ccco2)oc1SCc1ccc(F)cc1	1.1	43
COc1ccc(CNC(=O)Cn2ccc3cc(S(=O)(=O)N4CCCC4)ccc32)c(OC)c1	4.5	-4

The list continues:
SMILES	TRPML1 agonist	TRPML1 inh
Cc1sc2ncn(CC(=O)N3CCN(c4cccc(Cl)c4)CC3)c(=O)c2c1S(=O)(=O)N1CCN(c2ncccn2)CC1	-0.6	-12
COc1ccc(-c2nc(CSCC(=O)N3CCN(c4ccccc4)CC3)c(C)o2)cc1	2.6	-10
Cc1oc2ncnc(N3CCOCC3)c2c1C(=O)NCc1ccccc1	0.7	-3
Cc1cccc(NC(=O)CSc2nncn2C)c1	0.2	-13
CCC(=O)Nc1ccccc1-c1nc2ccccc2n(CC(=O)c2ccc(C)cc2)c1=O	2.1	-21
COc1ccc(CNC(=O)CCc2nc(-c3ccc(OC)cc3)no2)cc1	-1.3	22
COc1ccc(OC)c(CNC(=O)c2ccc(NC(=O)c3nsc4ccccc34)cc2)c1	1.6	-4
COc1ccc(-c2noc(-c3ccc(N4CCN(C)CC4)c([N+](=O)[O-])c3)n2)cc1OC	0.0	36
Cc1ccc(-n2nnc(-c3nc(-c4cccs4)no3)c2N)cc1C	-0.8	-6
COc1cc(/C=C/c2nc3cc(Cl)ccc3c(=O)n2-c2cccc(C(F)(F)F)c2)cc(OC)c1OC	0.2	4
O=S(=O)(NCC(c1ccco1)N1CCN(c2ccccc2)CC1)c1ccccc1 (stereo not given)	1.3	-10
Cc1ccc(-c2nc3scc(CCNS(=O)(=O)c4c(C)noc4C)n3n2)cc1	1.1	-26
O=C(NCCCc1ccccc1)c1ccc2c(c1)sc1nc(-c3ccc(F)cc3)cn12	0.1	-11
O=C(CC(c1ccccc1)c1cc(Br)ccc1O)NCC1(c2ccccc2)CCCC1 (stereo not given)	0.8	25
CCOC(=O)c1ccc(CN(Cc2ccc(F)cc2)S(=O)(=O)c2ccc(F)cc2)cc1	4.6	50
CC(=O)c1ccc(N2C(=O)N(CC(=O)c3ccc(C)cc3)c3ccccc3S2(=O)=O)cc1	0.2	13
CCc1nnc(SCc2nc(-c3ccccc3)oc2C)c2cc3sccc3n12	1.8	-25
N#Cc1nc(/C=C/c2ccc(F)cc2)oc1N1CCCCC1	-1.1	26
CS(=O)(=O)c1ccc(-c2nnc(NC(=O)c3ccc4c(c3)OCCO4)o2)cc1	-0.2	-7
CCOc1ccccc1NC(=O)N1CC(C)Oc2ccc(Cl)cc21 (stereo not given)	1.8	-10
COc1cccc(OC)c1C(=O)Nc1ccc(-c2nc3ncccc3o2)cc1	0.6	5
Cc1ccc(NC(=O)c2nc(S(C)(=O)=O)ncc2N(Cc2ccco2)Cc2cccs2)c(C)c1	2.9	-10
O=C(CCCCn1c(=O)c2ccccc2n(Cc2ccc(Cl)cc2)c1=O)NCc1ccccc1Cl	0.2	-2
Clc1ccccc1CNc1nc2ccccc2c2nc(-c3ccccc3)nn12	-0.1	-9
CCOc1ccc(-n2nc(CO)c(C(=O)NCCCc3ccccc3)n2)cc1	5.7	47
COCCNC(=O)C1CCN(c2nc3ccccc3nc2C(F)(F)F)CC1	-1.0	-8
COc1ccc(-c2nnc(SCC(=O)Nc3cccc(F)c3)s2)cc1	0.8	?
CCOC(=O)c1c(C)n(-c2ccccc2)c2ccc(OC(=O)c3ccccc3)cc12	0.0	32
COc1ccccc1NC(=O)CSCc1cc(=O)c2cccc(Cl)c2[nH]1	4.6	-4
Cc1cc(C)cc(-n2ccn3c(CC(C)(C)CC(=O)O)nnc3c2=O)c1	0.0	3
Cc1ccc(CCNC(=O)c2ccc3c(c2)c(C)c(C)n3Cc2ccccc2)cc1	2.8	37
O=C(COCc1cc(-c2ccc(F)cc2)on1)Nc1cc(F)ccc1F	0.6	-12
COc1cccc(-n2c(SCC(N)=O)nc3c(oc4ccccc43)c2=O)c1	-0.9	-2
Cc1ccc(OCc2ccc(-c3nc(C#N)c(NCc4cccnc4)o3)o2)cc1	0.5	37
COc1ccc(CCNC(=O)C2(c3cccs3)CCOCC2)cc1OC	0.0	-1
Cc1ccc(N2CCN(S(=O)(=O)c3ccc4oc(=O)c5ncn(C)c5c4c3)CC2)c(C)c1	1.5	3
Cc1ccc(S(=O)(=O)c2nc(-c3ccco3)oc2SCC(C)C)cc1	0.6	2
Cc1ccc(C)c(NC(=O)c2nnn(Cc3ccc(F)cc3Cl)c2N)c1	12	0
CC(C)c1ccc(C2c3c(oc4ccc(Cl)cc4c3=O)C(=O)N2CCCN2CCOCC2)cc1 (stereo not given)	0.9	38
COc1ccc(NC(=O)c2cc(-c3ccc(F)cc3)no2)cc1OC	-0.4	6

Some of these compounds in order of their number in TRPML1 inh, rising:
Structure,TRPML1 inh
CCOc1ccc(NC(=O)C2CCN(c3nnc(C)c4c(C)n(-c5ccccc5)nc34)CC2)cc1,-6
Cc1ccccc1CN1c2ccccc2-c2nc(SCC(=O)NCc3ccccc3)ncc2S1(=O)=O,-5
COc1ccccc1NC(=O)CSCc1cc(=O)c2cccc(Cl)c2[nH]1,-4
Cc1cc(C)cc(-n2ccn3c(CC(C)(C)CC(=O)O)nnc3c2=O)c1,3
COc1ccc(NC(=O)c2cc(-c3ccc(F)cc3)no2)cc1OC,6
CCOc1ccc(C(=O)Nc2c(C(=O)N3CCN(c4ccccc4F)CC3)oc3ccccc23)cc1,8
Cc1nc2c(-c3ccccc3)c(C)nn2c(C)c1CCC(=O)NCCc1ccccc1,54
